Source: PubChem
ugtP null kill: compounds lethal to S. aureus RN4220 ugtP deletion mutant; growth inhibition, % (test concentration not listed); OD600 growth, 16 h; some inactives read as strong as hits; 330,000 compounds, 0.54% hits; AID 1259309;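 active = z-score under -3 and OD600 up to 0.15 on both plates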;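 note: plate controls were untreated wells for no effect and antibiotic for full effect; wells of about 80 µL received 100 nL stock; the first replicate is given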
Bead autofluor: flagged as autofluorescent in microsphere protease counterscreen | 360,000 compounds, 3.1% hits | AID 624483 | fluorescence intensity (concentration not given with the values) | compound autofluorescence counterscreen, microsphere flow cytometry; active compounds read high;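 active = at least 3 SD above the mean of all compounds, about 16000 in these data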;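 note: 100 nL of 1 mM stock went into each well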
Mtb hypoxia rep: inhibitors of hypoxia-regulated fluorescent reporter in Mycobacterium tuberculosis. M. tuberculosis hypoxia-regulated fluorescent reporter, fluorescence. 300,000 compounds, 0.1% hits. AID 1159583. fluorescence inhibition, % (no concentration beside the values);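 active = 35 to 45% if threefold the growth effect, above 45% if 1.5-fold the growth effect; inactive = the rest, general growth blockers included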;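 note: wells of about 50 µL received 100 nL stock; 0% = vehicle wells and 100% = reference inhibitor wells; whole bacteria with a GFP reporter of the hypoxia response; strong numbers were not always called active; many hits fall short of the cut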
Sa RN4220 lethal: kills Staphylococcus aureus RN4220; S. aureus RN4220 growth, OD600, 16 h; inhibition, % (concentration not given with the values); 330,000 compounds, 0.33% hits; AID 1259311;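 active = z-score of -3 or lower and OD600 up to 0.18 on both plates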;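 note: plate controls were untreated cells for no effect and reference antibiotic for full effect; stock transfer was 100 nL into about 80 µL; one replicate is shown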
BJeLR viability: BJeLR cell viability loss | BJeLR (HRASV12) viability, CellTiter-Glo ATP luminescence, 48 h; reference of the scale not given here | inhibition, % (test concentration not listed) | 300,000 compounds, 0.17% hits;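 active = replicate mean above 50%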;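 note: 50 nL library stock added to about 25 µL; numbers are from one replicate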
PrP UTR inh: suppresses PrP 5' UTR mRNA reporter expression; cell-based PrP 5' UTR mRNA reporter, plate reader; inhibition, % (test concentration not listed); 340,000 compounds, 0.35% hits;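 active = every replicate at 50% or more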;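 note: 0 = median of the neutral control wells; tested in H4 reporter cells; numbers are from one replicate; inactives centre near -14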
Mtb hypoxia rep growth: further read-out of Mtb hypoxia rep, marked with its call; growth inhibition, %; measured here: M. tuberculosis growth (absorbance);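 0% = vehicle and 100% = reference antibiotic; read after six days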
Numbers without * were called inactive; · = not tested or not shown. Rows are unselected. About 3.9% of those tested had a hit in this group.

Values run as follows: ugtP null kill, Bead autofluor, Mtb hypoxia rep, Mtb hypoxia rep growth, Sa RN4220 lethal, BJeLR viability, PrP UTR inh
Cc1ccc(S(=O)(=O)c2cc3c(=O)n4cccc(C)c4nc3n(Cc3ccncc3)c2=N)cc1
  ·, 5591, ·, ·, ·, -6.9, -19.8
Cc1nc(C)n(CCNS(=O)(=O)c2ccccc2)n1
  6.9, 5148, 2.4, -0.8, 1.3, -8.1, -19.9
CC1CC(C)(C)CC2(C1)NC(=O)N(CC(=O)NC1CCCc3ccccc31)C2=O (stereo unspecified)
  5.4, 2017, 6.6, 2.4, 0.3, -5.0, -19.2
O=C(NC(=S)Nc1ccc(Cl)c(C(=O)O)c1)c1ccc(OCc2ccccc2)cc1
  -2.7, 5732, 5.2, 5.8, 19.1, 5.3, -6.1
COC(=O)/C(=N/Nc1ccccc1Cl)Sc1nnc(C(O)c2ccccc2)n1-c1ccccc1 (stereo unspecified)
  ·, 2197, ·, ·, ·, 1.5, -18.6
O=c1c2ccccc2c(-c2ccccc2)nn1-c1ccccc1
  14.5, 5486, 2.9, 1.2, -0.3, -9.9, ·
CCCN(CCC)Cc1c(C(=O)N/N=C/c2c[nH]c3ccccc23)nnn1-c1nonc1N
  ·, 5146, ·, ·, ·, 10.0, -13.2
COc1cc(C2CC(=O)Oc3c(C(CCN4CCOCC4)c4ccc(N(C)C)cc4)c(OC)cc(OC)c32)cc(OC)c1OC (stereo unspecified)
  0.6, 3784, 6.2, 5.4, 3.7, 2.4, -9.8
CCN(CC)S(=O)(=O)c1ccc(N2CCOCC2)c(NC(=O)c2nn(C)c(=O)c3ccccc23)c1
  4.7, 3647, 7.3, 13.3, 2.3, ·, -18.0
CCC(=O)Nc1ccc(NCc2ccc(-c3ccccc3)cc2)cc1
  -5.1, 5432, 6.7, 0.4, 7.3, 6.0, -14.7

An excerpt from above, limited to ugtP null kill and PrP UTR inh.
SMILES | ugtP null kill | PrP UTR inh
O=c1c2ccccc2c(-c2ccccc2)nn1-c1ccccc1 | 14.5 | ·
CCN(CC)S(=O)(=O)c1ccc(N2CCOCC2)c(NC(=O)c2nn(C)c(=O)c3ccccc23)c1 | 4.7 | -18.0

(list continues)
Values run as follows: ugtP null kill, Bead autofluor, Mtb hypoxia rep, Mtb hypoxia rep growth, Sa RN4220 lethal, BJeLR viability, PrP UTR inh
C=CCN(CC=C)c1ccc(N2C(=O)C3CCCCC3C2=O)cc1[N+](=O)[O-] (stereo unspecified)
  9.9, 4435, 6.3, 4.5, 5.2, 2.6, 5.8
O=c1c2ccccc2nc(-c2cccc(Cl)c2)n1O
  7.2, 8517, -0.8, -4.4, 14.8, 4.5, 7.2
CCOC(=O)C1CCN(C(=O)/C=C/c2ccc(OC)cc2)CC1
  2.0, 4030, ·, ·, 2.9, 8.4, -42.4
COc1ccc(/C=C2/C(=O)N(CC3CCCO3)C(=S)N2C)c(OC)c1 (stereo unspecified)
  10.3, 9828, 6.2, -6.3, 12.1, -1.4, -23.9
CCn1cnc2c1c(=O)n(CC(=O)OC)c(=O)n2Cc1ccccc1
  -1.2, 4145, 1.6, -0.1, -0.6, -1.7, -20.2
O=C(NCCS(=O)(=O)NCc1ccccc1Cl)c1ccc2c(c1)OCO2
  2.4, 5330, -1.5, 14.2, 1.3, -8.7, 2.9
CCOC(=O)CSc1nc(N)c(C#N)c(-c2cccs2)c1C#N
  2.0, 2771, ·, ·, 2.9, -11.5, -2.2
CC(=O)c1ccc(NC(=O)c2ccccc2-c2ccccc2C(=O)O)cc1
  7.2, 4083, ·, ·, 3.2, 12.2, -17.2
COC(=O)c1cc(C(=O)OCC(=O)NC(=O)NCc2ccccc2)cc([N+](=O)[O-])c1
  7.7, 8496, 3.6, -1.3, 1.8, ·, -24.3
CCC(CO)Oc1cc(NCc2cccc(C(F)(F)F)c2)c2ncn(C(C)C)c2c1 (stereo unspecified)
  -1.5, 4392, 0.9, 6.3, 6.8, ·, -10.7
Cc1nc2ccccn2c1C(O)=C1C(=O)C(=O)N(CCCn2ccnc2)C1c1ccncc1 (stereo unspecified)
  -0.6, ·, 5.3, 0.0, 3.6, ·, ·
COc1ccc(S(=O)(=O)N2CCN(C(=O)CC(C)C)CC2)cc1
  8.3, 2951, 15.6, 5.6, 7.6, -12.6, -7.9
CCOc1ccc2oc(C(=O)OCC(=O)N(CC(C)C)c3c(N)n(Cc4ccccc4)c(=O)[nH]c3=O)c(C)c2c1
  -8.6, 4184, 2.2, 12.7, 7.8, ·, 0.4
Cc1cc(C)c(COc2ccc(C=Nn3c(C)n[nH]c3=S)cc2)c(C)c1
  69.9, ·, 0.3, -3.3, -7.5, ·, ·
CCOC(=O)C(Cc1cc(C(C)=O)ccc1OCC)C(=O)OCC
  -0.3, 5071, ·, ·, -1.8, -2.6, -8.8
COc1ccc(NC(=O)C2CCCN(S(=O)(=O)c3cccnc3)C2)c(OC)c1 (stereo unspecified)
  4.8, 6071, ·, ·, 2.8, 1.1, -23.8
CCC(c1nnnn1C(C)(C)CC)N(CCCN1CCOCC1)Cc1cc2cccc(C)c2[nH]c1=O (stereo unspecified)
  -3.1, 11071, -7.4, 1.2, -1.6, 1.8, ·
O=C(O)c1cc(-c2ccco2)[nH]n1
  -2.6, 5560, 3.6, 3.0, 4.6, -1.6, -25.1
Cc1ccc(C(=O)N/C(=C\c2ccco2)C(=O)NCC2CCCO2)cc1C (stereo unspecified)
  ·, 2982, ·, ·, ·, -7.4, -6.2
CC(C)NC(=O)COc1ccc2c(c1)C(=O)CC(C)(C)O2
  5.6, 4653, 15.2, 11.1, 4.1, -5.0, -30.2
CCOC(=O)C1(Cc2ccccc2Cl)CCN(C(=O)CN2CCOC2=O)CC1
  1.4, 4808, 5.0, 5.9, 7.6, 6.9, -63.1
CC1CN(S(=O)(=O)c2ccc(C(=O)N(C)C3CCCCC3)cc2)CC(C)O1 (stereo unspecified)
  7.0, 2878, 4.5, 4.3, 4.8, ·, -4.8
CS(=O)(=O)N(CC(=O)N1CCN(c2ccccc2)CC1)Cc1ccc(Cl)cc1
  7.3, 7676, 15.3, 7.2, 6.4, -8.1, -8.5
CCOC(=O)c1sc(NC(=O)CSc2nnc(Cc3ccccc3)o2)c(C#N)c1C
  9.2, 4656, ·, ·, 7.2, -5.0, -23.1
COc1ccc(N2C(=O)CC(=O)NC2=O)cc1
  -6.4, 8548, -10.4, 6.9, -3.6, 5.9, -12.0
CCC(=Cc1ccccc1O)c1ccncc1
  0.7, 2904, 7.9, 9.8, 7.9, ·, -26.9
CCc1nnc(NC(=O)CN2C(=O)N(C)C3(CCCCC3)C2=O)s1
  1.2, 3893, 6.2, 2.5, 2.6, ·, -24.2
Nc1nnc(SCCCC(=O)c2ccc(F)cc2)s1
  4.3, 2867, 17.3, 3.5, 4.2, -6.4, -23.4
Cc1cc(C)cc(N=C2NC(=O)CS2)c1
  0.4, 4117, 16.0, 0.4, 0.8, -10.6, -22.0
O=C(O)CCCC(=O)Nc1ccc(Oc2cccc(C(F)(F)F)c2)nc1
  4.4, 3774, 1.5, 7.3, 1.9, -2.6, ·
CCNc1nc(C)cc(COC)c1C#N
  -6.6, 4545, -4.0, 6.3, 0.2, -3.1, -5.2
CCOc1ccc(C=Nn2c(C)nnc2C)cc1OC
  -1.3, ·, 1.8, 6.9, 0.0, ·, ·
O=C(COc1ccc(F)cc1)N(Cc1ccco1)C1CCS(=O)(=O)C1 (stereo unspecified)
  17.1, 4084, 9.9, 3.8, 3.3, -11.6, -17.3
O=C(CC1C(=O)NCCN1Cc1c(F)cccc1Cl)NC1CCCCCC1 (stereo unspecified)
  -3.4, 6256, -10.9, -7.2, -1.7, -0.5, -16.5
O=C(CCNC(=O)c1ccc([N+](=O)[O-])cc1)NCCC1=CCCCC1
  -4.0, 5920, 0.7, 0.5, 2.3, 0.9, -16.1
CC1(C)OC(=O)N(CC(=O)Nc2ccccc2)C1(C)O (stereo unspecified)
  2.6, 2609, -6.0, -2.8, -0.4, 10.9, -13.1
COc1cc(-c2nc(C)c(C(C)=O)n2O)ccc1OCC(=O)Nc1ccc(Cl)cc1
  18.2, 4787, 7.5, -0.2, 10.7, 1.6, -18.5
CCC1(C)Cc2c(sc3c2c(=O)n(C)c2nnc(SCc4ccc5c(c4)OCO5)n32)CO1 (stereo unspecified)
  2.9, 7965, 4.0, 3.7, 8.4, 13.9, -21.0
CN1CCN(CC(=O)Nc2cccc(S(=O)(=O)N(C)c3ccccc3)c2)CC1
  0.5, 7790, 4.0, -3.1, 7.0, ·, 91.0*
Nc1c(-c2ccc(F)cc2)cnn1C1CCS(=O)(=O)C1 (stereo unspecified)
  15.7, 2398, 1.2, -3.2, 25.7, 0.4, 5.8
CC(NC(=O)Cn1cc(C(F)(F)F)cc(Cl)c1=O)c1ccccc1 (stereo unspecified)
  10.4, 3711, -3.5, 4.1, -1.8, -4.9, -12.7
CCC(=O)N1CCN(c2ccccc2NC(=S)NC(=O)c2cccc([N+](=O)[O-])c2)CC1
  11.3, 2396, 6.1, 3.2, 5.2, 3.5, -4.3
O=C(COC(=O)[C@@H]1CCCN1C(=O)c1cccs1)Nc1cccc(Cl)c1
  -8.5, 3791, -7.9, -0.4, -2.3, ·, -7.2
CCOc1ccc(C(=O)NCC(=O)N2CCC3CCCCC3C2)cc1OCC (stereo unspecified)
  8.4, 4115, -5.3, 1.6, -1.2, 1.1, -4.7
Cc1c(CCO)sc[n+]1CC(=O)OCCC12CC3CC(CC(C3)C1)C2
  3.4, 2489, 12.6, -1.0, 2.6, 2.4, 1.6
Cc1ccc2cc(CN(Cc3ccco3)C(=O)C3CCCCC3)c(=O)[nH]c2c1C
  7.7, 3508, 11.4, 11.4, 5.4, 4.3, -10.9
CCc1ccc(O)c(CNCCNCc2cc(CC)ccc2O)c1
  43.3, 3913, 12.1, 15.2, -0.9, 4.0, 7.5
C[N+](C)(C)c1ccc(C=NNc2nc(Cl)c(C#N)c(Cl)c2Cl)cc1
  22.2, ·, 9.6, 5.6, 8.8, ·, ·
COC(=O)Oc1ccc(/C=N/NC(=O)CN(c2ccccc2Cl)S(C)(=O)=O)cc1OC
  ·, 3536, ·, ·, ·, 1.1, -7.4
Cn1c2ccsc2c2ncn(Cc3ccc(F)cc3)c(=O)c21
  -3.1, 2901, -2.1, 0.6, 3.8, ·, -11.4

The list continues:
Values run as follows: ugtP null kill, Bead autofluor, Mtb hypoxia rep, Mtb hypoxia rep growth, Sa RN4220 lethal, BJeLR viability, PrP UTR inh
Cc1ccc2nc(-c3ccc(SCC(=O)Nc4nc(C)cs4)nc3)[nH]c2c1
  -1.1, 9050, 3.6, -5.3, 5.6, 13.4, -58.1
O=c1c(-c2nnc(SCc3ccc(Cl)c(Cl)c3)o2)cccn1Cc1ccccc1
  86.3*, 6032, 2.2, 9.3, -15.7, 8.0, -17.1
CCN1C(=O)CC(N2CCC(Nc3ccc(F)cc3)CC2)C1=O (stereo unspecified)
  -2.8, 4835, ·, ·, -2.1, -4.6, -9.8
CCOC(=O)Cc1cc(=O)n2[nH]c(-c3ccccc3)c(-c3ccccc3)c2n1
  -1.7, 5050, 9.4, 13.7, -1.9, 5.3, -19.8

4 entries from above, field by field.
Cc1ccc(S(=O)(=O)c2cc3c(=O)n4cccc(C)c4nc3n(Cc3ccncc3)c2=N)cc1
  ugtP null kill: ·
  Bead autofluor: 5591
  Mtb hypoxia rep: ·
  Mtb hypoxia rep growth: ·
  Sa RN4220 lethal: ·
  BJeLR viability: -6.9
  PrP UTR inh: -19.8
Cc1nc(C)n(CCNS(=O)(=O)c2ccccc2)n1
  ugtP null kill: 6.9
  Bead autofluor: 5148
  Mtb hypoxia rep: 2.4
  Mtb hypoxia rep growth: -0.8
  Sa RN4220 lethal: 1.3
  BJeLR viability: -8.1
  PrP UTR inh: -19.9
CC1CC(C)(C)CC2(C1)NC(=O)N(CC(=O)NC1CCCc3ccccc31)C2=O (stereo unspecified)
  ugtP null kill: 5.4
  Bead autofluor: 2017
  Mtb hypoxia rep: 6.6
  Mtb hypoxia rep growth: 2.4
  Sa RN4220 lethal: 0.3
  BJeLR viability: -5.0
  PrP UTR inh: -19.2
O=C(NC(=S)Nc1ccc(Cl)c(C(=O)O)c1)c1ccc(OCc2ccccc2)cc1
  ugtP null kill: -2.7
  Bead autofluor: 5732
  Mtb hypoxia rep: 5.2
  Mtb hypoxia rep growth: 5.8
  Sa RN4220 lethal: 19.1
  BJeLR viability: 5.3
  PrP UTR inh: -6.1
